# rRNA inh HTS: inhibits bacterial ribosomal RNA function over humanized ribosomes. E. coli WT GFP vs humanized-ribosome RFP mutants, fluorescence, 24 h; stronger effect = lower value; DMSO median 0, no signal -100. GFP signal change (wild-type ribosome), % (test concentration not listed). 350,000 tested, 1.6% active. AID 720706;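 active = significant combined selectivity score with lowered wild-type GFP, culture density cut under 30%, mutant RFP and density less affected; inactive = any of these conditions unmet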; note: one replicate is shown; some compounds called inactive have numbers as strong as hits
# rRNA inh HTS OD600: further read-out of rRNA inh HTS, marked with its call; OD600 change, %; measured here: OD600 growth;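 optical density of the mix in the first replicate; 0 = DMSO median and -100 = no signal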
# rRNA inh HTS RFP: recorded beside rRNA inh HTS, whose call it bears; RFP signal change, %; measured here: RFP humanized mutant strains;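 first replicate; 0 = DMSO median and -100 = no signal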
# The depositor's hits bear a star; & = joins results of further samples. Not all compounds are listed, so the mix of outcomes need not match the whole.
SMILES,rRNA inh HTS,rRNA inh HTS OD600,rRNA inh HTS RFP
Cc1ccccc1-c1ccc([C@H]2[C@@H](CO)N3C(=O)CN(C(=O)Nc4ccc(F)cc4)C[C@@H]23)cc1,-7,-2,22
O=C(c1ccc(F)cc1)N1CC(=O)N2[C@@H](CO)[C@H](c3ccc(/C=C/c4ccccc4)cc3)[C@@H]2C1,5,-19,19
O=C(C[C@H]1C[C@@H]2c3cc(NC(=O)NC4CCCCC4)ccc3O[C@@H]2[C@H](CO)O1)NCCc1ccccc1,0,-2,2.1
Cc1noc(C)c1S(=O)(=O)N(C)C[C@H]1Oc2ccc(NC(=O)Nc3ccccc3)cc2C(=O)N([C@H](C)CO)C[C@@H]1C,-6,-2,-0.3
CCCN1C[C@@H](C)[C@@H](OC)CN(C)C(=O)c2cc(NC(=O)COC)ccc2OC[C@@H]1C,0,-1,-1.9
CO[C@H]1CN(C)C(=O)c2cc(NC(=O)C3CC3)ccc2OC[C@@H](C)N(C(=O)NC(C)C)C[C@@H]1C,2,12,0.3
C[C@@H]1CN([C@H](C)CO)C(=O)c2cc(-c3ccc(F)cc3)cnc2O[C@@H]1CN(C)C(=O)c1ccncc1,2,15,0.4
CC(=O)N1[C@H](CO)[C@@H](c2ccc(-c3ccc(F)cc3)cc2)[C@H]1CNC(=O)C1CC1,-1,-6,3.6
CN(C)C(=O)c1cccc(-c2ccccc2[C@@H]2[C@H](C#N)N(C(=O)C3CCC3)[C@H]2CO)c1,-1,7,-0.7
C[C@H]1CCCCO[C@H](CN(C)Cc2ccccc2)[C@@H](C)CN([C@@H](C)CO)C(=O)c2cc(NS(=O)(=O)c3cn(C)cn3)ccc2O1,4,5,-1.5
CC(C)NC(=O)Nc1cccc2c1O[C@@H](CN(C)C(=O)NC(C)C)[C@@H](C)CN(C)C2=O,-1,-6,-0.8
CCS(=O)(=O)Nc1ccc2c(c1)C(=O)N(C)[C@H]1CC[C@H](CC(=O)NC)O[C@@H]1CO2,4,4,-2.1
O=C(Nc1ccccc1F)N1CC(=O)N2[C@H](CO)[C@@H](c3ccc(-c4cccnc4)cc3)[C@@H]2C1,-5,-1,-0.9
CCC(=O)N1[C@@H](C#N)[C@@H](c2ccccc2-c2ccccc2)[C@@H]1CO,-3,1,3.9
O=C(c1cnccn1)N1CC(=O)N2[C@H](C1)[C@@H](c1ccc(C#CC3CCCCC3)cc1)[C@@H]2CO,0,-41,16
O=C(c1ccccc1F)N1CC(=O)N2[C@H](CO)[C@@H](c3ccc(C#Cc4ccc(F)cc4)cc3)[C@H]2C1,-45,-66,2.8
COc1ccc(-c2ccc([C@H]3[C@H](CO)N4C(=O)CN(C(=O)NC(C)C)C[C@@H]34)cc2)cc1,-2,12,-1.0
CN1C(=O)c2cc(NC(=O)c3cccc(F)c3)ccc2OC[C@@H]2O[C@H](CC(=O)NCC3CC3)CC[C@@H]21,-4,-8,-0.5
Cc1cccc(-c2ccc([C@H]3[C@@H](CO)N4C(=O)CN(C(=O)c5cnccn5)C[C@H]34)cc2)c1,2,4,-4.5
C[C@@H]1CCCCO[C@@H](CN(C)S(=O)(=O)c2cn(C)cn2)[C@H](C)CN([C@H](C)CO)C(=O)c2cc(NC(=O)Nc3ccc(F)cc3)ccc2O1,-2,-4,0.6
Cc1ccc(S(=O)(=O)Nc2ccc3c(c2)C(=O)N([C@H](C)CO)C[C@H](C)[C@@H](CN(C)S(=O)(=O)c2ccccc2)OCCCC[C@H](C)O3)cc1,-2,-4,-0.7
COCC(=O)N[C@@H]1C=C[C@H](CC(=O)N2CCCCC2)O[C@@H]1CO,1,1,0.5
C[C@@H]1CN([C@H](C)CO)C(=O)CCCn2cc(nn2)CO[C@@H]1CN(C)Cc1ccc2cccnc2c1,-3,1,-1.8
COc1ccc(NC(=O)N2CC(=O)N3[C@@H](CO)[C@H](c4ccc(-c5ccccc5)cc4)[C@@H]3C2)cc1,-1,4,4.4
COC(=O)c1ccc(CN2CC(=O)N3[C@@H](CO)[C@H](c4ccc(-c5ccccc5)cc4)[C@@H]3C2)cc1,-3,3,7.8
CC(C)CC#Cc1ccc([C@H]2[C@@H](CO)N3C(=O)CN(S(=O)(=O)c4ccccc4)C[C@@H]23)cc1,-2,-17,29
O=C(Nc1ccccc1F)N1CC(=O)N2[C@H](CO)[C@H](c3ccc(C#CC4CC4)cc3)[C@@H]2C1,2,0,3.6
O=C(Nc1cccc(F)c1)N1[C@@H]2CNC[C@H]1C2c1ccc(-c2cccc(F)c2)cc1 (stereo partly drawn),-60&-61,-75&-70,-12&-8.9
CCCN1C[C@@H](C)[C@H](OC)CN(C)C(=O)c2cc(NS(C)(=O)=O)ccc2OC[C@@H]1C,2,5,-0.7
O=C(CCN1CCCCC1)NCC[C@@H]1CC[C@H](NC(=O)Cc2cccnc2)[C@H](CO)O1,-2,0,0.7
C[C@H](CO)N1C[C@H](C)[C@@H](CN(C)Cc2ccccc2)Oc2ncc(C#Cc3ccccn3)cc2C1=O,-3,11,0.2
C/C=C/c1ccc([C@@H]2[C@@H](CN(C)C(=O)CN(C)C)N(C(=O)C3CC3)[C@H]2CO)cc1,5,14,-1.4
C[C@H]1CN([C@@H](C)CO)C(=O)c2cc(NS(=O)(=O)c3ccc(Cl)cc3)ccc2O[C@@H]1CN(C)Cc1ccc(C(F)(F)F)cc1,0,-4,2.0
O=C(c1ccc(F)cc1)N1CC(=O)N2[C@H](CO)[C@@H](c3ccc(C#Cc4ccc(F)cc4)cc3)[C@@H]2C1,1,9,-1.5
O=C(Nc1cccc(F)c1)N1C[C@@H]2N[C@H](C1)C2c1ccc(-c2ccc(F)cc2)cc1 (stereo partly drawn),-59&-57,-77&-81,-13&-11
C[C@@H]1CN([C@@H](C)CO)C(=O)c2cc(NC(=O)Nc3ccccc3)ccc2O[C@H]1CN(C)C(=O)Nc1ccc2c(c1)OCO2,2,-3,-0.8
C[C@@H](O)C#Cc1ccc([C@H]2[C@@H](CO)N3CCCCN(S(=O)(=O)c4ccccc4)C[C@H]23)cc1,2,25,1.7
C[C@@H]1CN([C@@H](C)CO)C(=O)c2cc(NC(=O)Nc3ccc(C(F)(F)F)cc3)ccc2O[C@@H]1CN(C)S(=O)(=O)c1cccs1,0,3,0.9
C[C@@H]1CN([C@H](C)CO)C(=O)c2cccc(NS(=O)(=O)c3ccc(F)cc3)c2O[C@@H]1CN(C)Cc1ccc(Oc2ccccc2)cc1,1,1,0.9
C[C@H]1CN([C@@H](C)CO)C(=O)Cc2cc(NC(=O)CCC(F)(F)F)ccc2O[C@H]1CN(C)C(=O)NC1CCCCC1,1,5,-3.7
C/C=C/c1ccc([C@@H]2[C@H](CO)N(C(C)=O)[C@H]2CN(C(C)=O)C2CCCC2)cc1,0,6,-0.3
COc1ccccc1NC(=O)N(C)C[C@H]1OCc2ccccc2-c2ccccc2C(=O)N([C@H](C)CO)C[C@@H]1C,-3,0,-1.8
CO[C@H]1CN(C)C(=O)c2cc(NC(=O)Nc3ccc(Cl)c(Cl)c3)ccc2OC[C@H](C)NC[C@@H]1C,-3&-5&-59,-1&-7&-83,-3.7&9.1&-16
CC(C)c1cn(CC[C@H]2CC[C@@H](NC(=O)Nc3cc(Cl)cc(Cl)c3)[C@H](CO)O2)nn1,-11,-35,6.7
CCC(=O)Nc1ccc2c(c1)C(=O)N(C)C[C@@H](OC)[C@@H](C)CN(Cc1nccs1)[C@H](C)CO2,1,3,-3.0
Cc1ccc(-c2ccc(C3[C@@H]4CN(Cc5cccc(F)c5)C[C@H]3N4)cc2)cc1 (stereo partly drawn),-55,-79,-16
C[C@@H]1CN([C@@H](C)CO)S(=O)(=O)c2ccc(C#CC3CCCC3)cc2O[C@@H]1CN(C)C(=O)c1cccc(F)c1,1,4,0.4
CC(C)(O)C#Cc1ccc([C@@H]2[C@@H](CO)N3CCCCN(S(C)(=O)=O)C[C@@H]23)cc1,0,0,0.0
COCC(=O)NC[C@@H]1N[C@@H](CO)[C@H]1c1ccc(C2=CCCC2)cc1,5,11,-2.2
C[C@@H]1CN([C@@H](C)CO)C(=O)c2cc(-c3ccncc3)cnc2O[C@H]1CN(C)C(=O)C1CC1,7,15,0.2
C[C@H](CO)N1C[C@H](C)[C@@H](CN(C)C(=O)Nc2ccccc2)Oc2ccc(NC(=O)CCCCCC(=O)Nc3ccccc3N)cc2C1=O,3,8,-1.0
CCCNC(=O)N1CC(=O)N2[C@@H](CO)[C@H](c3ccc(-c4ccc(F)cc4)cc3)[C@@H]2C1,-4,5,-2.5
CNC[C@@H]1Oc2ccc(NC(=O)CCCN(C)C)cc2CC(=O)N([C@@H](C)CO)C[C@H]1C,8,23,-4.0
Cc1ccc(S(=O)(=O)Nc2ccc3c(c2)C(=O)N([C@@H](C)CO)C[C@@H](C)[C@@H](CN(C)Cc2ccc(C(=O)O)cc2)OCCCC[C@@H](C)O3)cc1,-2,-9,0.1
CN1c2ccc(Br)cc2[C@@H]2[C@@H](CCN2C(=O)Cc2ccccc2)[C@H]1CO,-2,-2,7.0
COCC(=O)Nc1ccc2c(c1)OC[C@H](C)N(C(=O)C1CCCC1)C[C@H](C)[C@@H](OC)CN(C)C2=O,-1,6,-0.6
COCC(=O)N(C[C@@H]1N[C@@H](CO)[C@@H]1c1ccc(C2=CCCC2)cc1)C(C)C,3,-5,-1.0
COc1ccc(-c2ccc3c(c2)[C@H]2[C@H](CCN2Cc2ccncc2)[C@@H](CO)N3)cc1,4,-2,0.4
O=C(Nc1ccc(Cl)c(Cl)c1)N[C@H]1CC[C@@H](CCn2cc(C3CCCC3)nn2)O[C@H]1CO,-61,-78,-17
CCCNC(=O)N1CC(=O)N2[C@H](CO)[C@@H](c3ccc(C#CCC4CCCC4)cc3)[C@@H]2C1,-2,-14,-3.5

# Brought forward from above: 7 compounds, followed by the next part.
SMILES,rRNA inh HTS,rRNA inh HTS OD600,rRNA inh HTS RFP
Cc1ccc(S(=O)(=O)Nc2ccc3c(c2)C(=O)N([C@@H](C)CO)C[C@@H](C)[C@@H](CN(C)Cc2ccc(C(=O)O)cc2)OCCCC[C@@H](C)O3)cc1,-2,-9,0.1
CN1c2ccc(Br)cc2[C@@H]2[C@@H](CCN2C(=O)Cc2ccccc2)[C@H]1CO,-2,-2,7.0
COCC(=O)Nc1ccc2c(c1)OC[C@H](C)N(C(=O)C1CCCC1)C[C@H](C)[C@@H](OC)CN(C)C2=O,-1,6,-0.6
COCC(=O)N(C[C@@H]1N[C@@H](CO)[C@@H]1c1ccc(C2=CCCC2)cc1)C(C)C,3,-5,-1.0
COc1ccc(-c2ccc3c(c2)[C@H]2[C@H](CCN2Cc2ccncc2)[C@@H](CO)N3)cc1,4,-2,0.4
O=C(Nc1ccc(Cl)c(Cl)c1)N[C@H]1CC[C@@H](CCn2cc(C3CCCC3)nn2)O[C@H]1CO,-61,-78,-17
CCCNC(=O)N1CC(=O)N2[C@H](CO)[C@@H](c3ccc(C#CCC4CCCC4)cc3)[C@@H]2C1,-2,-14,-3.5
CNC[C@H]1Oc2ncc(-c3cncnc3)cc2C(=O)N([C@@H](C)CO)C[C@H]1C,5,33,6.7
C[C@@H]1CN(C)C(=O)Cc2cc(N)ccc2O[C@H]1CN(C)C(=O)OC(C)(C)C,-2,0,-0.4
COc1ccccc1C#Cc1ccc([C@H]2[C@@H](C#N)N(C(=O)C3CCCC3)[C@H]2CO)cc1,-6,-40,24
C[C@H](CO)N1C[C@H](C)[C@@H](CN(C)C(=O)C2CCCCC2)OCCCC[C@H](C)Oc2ccc(NS(C)(=O)=O)cc2C1=O,1,4,3.0
C[C@@H]1CN([C@H](C)CO)C(=O)Cc2cc(NS(=O)(=O)c3ccc(F)cc3)ccc2O[C@@H]1CN(C)C(=O)Nc1ccc2c(c1)OCO2,0,3,-2.6
O=C(c1ccncc1)N1CC(=O)N2[C@H](C1)[C@H](c1ccc(-c3cccnc3)cc1)[C@@H]2CO,1,11,1.5
O=C(c1cccnc1)N1CC(=O)N2[C@H](C1)[C@@H](c1ccc(/C=C/c3ccccc3)cc1)[C@@H]2CO,-2,-9,5.8
O=C(CC1CC1)N1CC(=O)N2[C@H](CO)[C@H](c3ccc(C#Cc4cccc(F)c4)cc3)[C@H]2C1,-43,-66,-3.6
C[C@@H]1CN([C@@H](C)CO)C(=O)Cc2cc(NS(=O)(=O)c3ccc(F)cc3)ccc2O[C@@H]1CN(C)Cc1ccncc1,-5,-3,1.5
COc1ccc2c3c(n(C)c2c1)[C@H](CO)NCC31CCN(C(=O)c2ccccc2)CC1,5,-6,-0.5
COc1ccccc1C(=O)Nc1ccc2c(c1)OC[C@@H](C)N(CC1CC1)C[C@@H](C)[C@@H](OC)CN(C)C2=O,-1,2,2.1
O=C(c1ccncc1)N1C[C@@H]2[C@H](c3ccccc31)[C@H](CO)N2C(=O)Nc1ccc(F)cc1,0,-3,-1.5
